Screens deposited in PubChem by Vanderbilt University.
GIRK2 activ – opens human GIRK2 potassium channels | AID 1259325 | hit rate 0.05% among 63,000 | HEK293-GIRK2 thallium flux, Thallos fluorescence | calls only for hits at 25 µM | P48051;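 active means among the strongest 0.2% of first-round signals and kept after retests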;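 further: first round at about 10 µM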
Target sequence (P48051 whole entry, looked up): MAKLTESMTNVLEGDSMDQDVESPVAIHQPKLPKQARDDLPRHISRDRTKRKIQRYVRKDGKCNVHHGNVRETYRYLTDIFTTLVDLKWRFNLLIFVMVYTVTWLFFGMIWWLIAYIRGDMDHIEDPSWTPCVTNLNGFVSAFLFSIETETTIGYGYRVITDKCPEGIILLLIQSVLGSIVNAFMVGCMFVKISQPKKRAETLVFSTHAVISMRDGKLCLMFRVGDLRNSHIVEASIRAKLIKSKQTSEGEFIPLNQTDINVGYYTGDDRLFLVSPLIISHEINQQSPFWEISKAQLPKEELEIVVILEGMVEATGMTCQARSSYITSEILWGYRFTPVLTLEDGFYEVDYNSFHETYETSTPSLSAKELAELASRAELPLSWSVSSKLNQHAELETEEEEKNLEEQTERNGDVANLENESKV
Calls only; i = inactive. Some of the compounds tested; count on the stated rates, not on these rows.

SMILES	GIRK2 activ
CCCCC[C@H](O)/C=C/C1[C@@H](C/C=C\CCCC(=O)NCCO)C(O)C[C@@H]1O (some centres undefined)	i
CC(CCCCC(=O)Nc1ccc(C(F)(F)F)cc1)NCCc1cnc[nH]1 (centres undefined)	i
CCOc1ccc(C(=O)NCCN2CCN(c3ccc(Cl)cc3)CC2)cc1	i
COc1ccccc1OCCNc1ncc2c(=O)n(C3CCCC3)c(=O)[nH]c2n1	i
O=C(Nc1nc2c(s1)CN(S(=O)(=O)C1CC1)CC2)c1ccc2nc[nH]c2c1	i
O=C(CSc1nnc(N2CCN(C(=O)c3cc4ccccc4o3)CC2)s1)Nc1ccccc1	i
Cc1cn2c3c(=O)n(CCN4CCCCC4)c(=O)n(C)c3nc2n1C1CCCCC1	i
CC1CCCN(C(=O)Cn2nc3c(-c4nc(-c5cccc(Cl)c5)no4)cccn3c2=O)C1 (centres undefined)	i
CCOC(=O)C1CCc2sc(NC(=O)c3ccc(=O)[nH]n3)nc21 (centres undefined)	i
CCOC(=O)CCn1c(Br)nc2c1c(=O)[nH]c(=O)n2C	i

Grouped by structure: those above with two or more sulfur atoms.
SMILES	GIRK2 activ
O=C(Nc1nc2c(s1)CN(S(=O)(=O)C1CC1)CC2)c1ccc2nc[nH]c2c1	i
O=C(CSc1nnc(N2CCN(C(=O)c3cc4ccccc4o3)CC2)s1)Nc1ccccc1	i

Following part
SMILES	GIRK2 activ
Cc1ccc(-n2ncc3c(C(C)C)nnc(SCC(=O)NC(C)C)c32)cc1C	i
Cc1nc(-c2nnn(-c3ccccc3)c2C)sc1C(=O)NCCc1cccs1	i
O=C(Nc1nc2c(s1)CN(S(=O)(=O)c1ccc(Cl)s1)CC2)c1cccs1	i
CCc1ccc(S(=O)(=O)NCCN2CCN(c3ccccc3F)CC2)cc1	i
O=C(c1ccc(F)cc1F)N1CCC(c2nnc(-c3ccco3)s2)CC1	i
CCOc1ccc(N2CCn3c2nn(Cc2ccccc2Cl)c(=O)c3=O)cc1	i
Cc1nnsc1C(=O)NCCC(O)c1ccc2c(c1)OCO2 (centres undefined)	i
CN1C(=O)c2ccc(NC(=O)c3ccc(S(=O)(=O)N4CCc5ccccc5C4)cc3)cc2C1=O	i
COC(=O)C12CC3CC(CC(NC(=O)Nc4cccc(C)c4)(C3)C1)C2	i
Cc1cn2c3c(=O)n(CC(N)=O)c(=O)n(C)c3nc2n1-c1ccccc1	i

Random excerpt: 2 entries already listed, in no set order.
SMILES	GIRK2 activ
Cc1nc(-c2nnn(-c3ccccc3)c2C)sc1C(=O)NCCc1cccs1	i
CCOC(=O)C1CCc2sc(NC(=O)c3ccc(=O)[nH]n3)nc21 (centres undefined)	i

Next results.
SMILES	GIRK2 activ
COc1ccc(NC(=O)c2cn(Cc3ccc(NC(=O)c4cccc(C)c4)cc3)cn2)cc1	i
O=C(Nc1cnc(N2CCCC2)nc1)C1CCCCC1	i
CSc1nc2cc(N)ccc2s1	i
Cc1cc(=O)n2[nH]cc(C(=O)Nc3ccc(Cl)cc3)c2n1	i
CCOc1ccc(C2NC(=O)NC(C)=C2C(=O)Nc2ccc(C)c(C)c2)cc1 (centres undefined)	i
O=C(CSc1nc2c(oc3ccccc32)c(=O)n1Cc1ccco1)Nc1ccccc1	i
Cc1ccc(S(=O)(=O)NCCC(=O)N2CCOCC2)c(C)c1N(C)S(C)(=O)=O	i
CNCC(O)COc1cc(C)ccc1C(C)C (centres undefined)	i
CC(C)Oc1ccc(C(=O)N2CC3CC2C(=O)O3)cc1 (centres undefined)	i
CC(C(=O)Nc1ccccc1OC(F)(F)F)n1nc(-n2cccn2)ccc1=O (centres undefined)	i
COc1cc(OC)cc(N2N=NC3C(=O)N(c4cccc(SC)c4)C(=O)C32)c1 (centres undefined)	i
O=C(/C=C/c1ccco1)N1CCC(Oc2ccccn2)CC1	i
CCOC(=O)C1CCCN(C(=O)c2csc(Nc3ccccn3)n2)C1 (centres undefined)	i
CC(=O)Nc1ccc(S(=O)(=O)NCCN2CCN(c3ccc(Cl)cc3)CC2)cc1	i
CCCn1c(=O)c2c(nc3n2CC(C)CN3c2cc(OC)ccc2OC)n(C)c1=O (centres undefined)	i
O=C(CSc1nnc(-c2cccc(S(=O)(=O)N3CCCC3)c2)o1)c1ccccc1	i
CCOc1ccccc1NC(=O)CN1CC(c2nc(C3CC3)no2)C1	i
Cc1nc(SCC(=O)N2CCN(c3ccccc3F)CC2)cc(-c2ccccn2)n1	i
O=C(CSc1ccc(F)cc1)NCC1CCS(=O)(=O)C1 (centres undefined)	i
Cc1cc(N2CCCCC2)nc(NCCNC(=O)C2CCCO2)n1 (centres undefined)	i
O=C(NCC1CCN(S(=O)(=O)C2CC2)CC1)C(=O)Nc1cc2c3c(c1)CCN3C(=O)CC2	i
CCOC(=O)Cn1c(=NC(=O)c2ccn(C)n2)sc2cc(F)cc(F)c21	i
S=c1ccc2ccccc2[nH]1	i
CCOc1ccc(N(C)S(=O)(=O)c2ccsc2-c2nc(-c3cccc(F)c3)no2)cc1	i
COc1ccc(-c2cc(=O)n(CCNS(=O)(=O)c3cccs3)cn2)cc1	i
O=C(C1=NN(Cc2nc(C3CC3)no2)c2ccccc2S1(=O)=O)N1CCCC1	i
O=S(=O)(C1CC1)N1CC(c2nc(-c3cccc(Cl)c3)no2)C1	i
Cn1cnc(S(=O)(=O)NCc2ccsc2)c1	i
Cc1ccc(C(=O)Nc2ccc(S(C)(=O)=O)cc2)cc1C	i
CC[N+](C)(C)c1cccc(O)c1	i
CSc1ccccc1C(=O)N1CC(Oc2nc3ccccc3s2)C1	i
O=C1C(c2ccccc2)N(c2ccc(Br)cc2)C(=O)N1c1ccc(Br)cc1 (centres undefined)	i
Cc1ccc(C(=O)N2CCN(S(=O)(=O)c3cc4c5c(c3)CCC(=O)N5CCC4)CC2)cc1C	i
COc1cccc(COc2coc(C(=O)N3CCN(C(=O)c4ccco4)CC3)cc2=O)c1	i
COc1ccc(-n2nnc(C(=O)N3CCN(C(=O)C4CC4)CC3)n2)cc1	i
O=C(c1ccc2nsnc2c1)N1CC(c2nc(-c3ccccc3)no2)C1	i
COc1cc2nc(SCC(=O)NC3CCCCC3)n3nc(-c4ccccc4)nc3c2cc1OC	i
CCCCCCCCCCCCCCCC(=O)OC(CC(=O)O)C[N+](C)(C)C (centres undefined)	i
COc1ccc(C(=O)N2c3ccccc3CC2C(N)=O)c(OC)c1 (centres undefined)	i
CCOc1ccccc1C(=O)NCC1CCN(C(=O)Oc2ccccc2)CC1	i

Overlap with the part before: three entries, followed by the next part.
SMILES	GIRK2 activ
CCCCCCCCCCCCCCCC(=O)OC(CC(=O)O)C[N+](C)(C)C (centres undefined)	i
COc1ccc(C(=O)N2c3ccccc3CC2C(N)=O)c(OC)c1 (centres undefined)	i
CCOc1ccccc1C(=O)NCC1CCN(C(=O)Oc2ccccc2)CC1	i
COc1cccc(S(=O)(=O)NCc2ccc(C(=O)Nc3ccc(Cl)cc3)cc2)c1	i
COc1ccc(CC(=O)Nc2ccc(SCC(=O)N3CCCC3)nn2)cc1OC	i
O=C(Cc1cccs1)NC1CC(=O)N(C2CC2)C1 (centres undefined)	i
O=c1c(=O)n(Cc2nc(-c3ccc4c(c3)OCO4)no2)ccn1Cc1ccc(Cl)cc1	i
CCCc1cnc2c(c1SCC(=O)OCc1ccccc1)c(=O)n(C)c(=O)n2C	i
COc1cc2nc3sc(Nc4cc(F)ccc4F)nn3c(=O)c2cc1OC	i
CC(O)CN1CCN(C(=O)c2ccc3nsnc3c2)CC1 (centres undefined)	i
CC(Oc1cccc(Br)c1)C(=O)NCc1ccccc1 (centres undefined)	i
COCCCn1cnc2c(-c3ccccc3)cn(CC(=O)NCc3ccc(C)cc3)c2c1=O	i
O=C(C1CC=CCC1)N(CCc1cccs1)Cc1cccnc1 (centres undefined)	i

For reference, part of the list above.
SMILES	GIRK2 activ
COc1cc2nc3sc(Nc4cc(F)ccc4F)nn3c(=O)c2cc1OC	i
CC(O)CN1CCN(C(=O)c2ccc3nsnc3c2)CC1 (centres undefined)	i
CC(Oc1cccc(Br)c1)C(=O)NCc1ccccc1 (centres undefined)	i
COCCCn1cnc2c(-c3ccccc3)cn(CC(=O)NCc3ccc(C)cc3)c2c1=O	i

Going on with the list:
SMILES	GIRK2 activ
Cc1c(C)n2c3c(=O)n(CC(N)=O)c(=O)n(C)c3nc2n1-c1ccc(F)cc1	i
CC(=O)Nc1ccc(C2=NN(C(C)=O)C(c3cccs3)C2)cc1 (centres undefined)	i
Cc1cc(OCC(=O)Nc2ccc(C(C)C)cc2)nc(N2CCCCC2)n1	i
CCOc1ccc(-c2noc(Cc3nc(-c4ccc5c(c4)OCO5)cs3)n2)cc1	i
N#Cc1cccc(C(=O)N(Cc2ccoc2)Cc2cccs2)c1	i
COc1ccc(C(=O)Cn2c(N3CCCC3)nc3c2c(=O)[nH]c(=O)n3C)cc1	i
Cc1nc(Nc2ccc(C(=O)O)cc2)c2oc3ccccc3c2n1	i
O=C(CCSc1ccccc1)N1CC(c2nc(-c3ccc[nH]c3=O)no2)C1	i
COc1ccccc1-c1ccc(N2CCC(NC(=O)c3sccc3C)CC2)nn1	i
COc1ccc(SCC(=O)Nc2sc3c(c2-c2nc4ccccc4s2)CCN(C)C3)cc1	i
O=S(=O)(Cc1ccc(C(F)(F)F)cc1)N1CCC2(CC1)OCCCO2	i
C=CCNc1oc(-c2ccc(S(=O)(=O)N3CCCCC3)cc2)nc1C#N	i
O=C(Nc1nc(C(=O)Nc2ccc(F)c(F)c2)co1)c1ccccc1	i
Cn1c(=O)[nH]c(=O)c2c1nc(NCCc1ccccc1)n2CCCOc1ccccc1	i
COCCNC(=O)c1nnn(-c2ccc(NC(=O)Nc3ccccc3F)cc2)n1	i
CC1C(=O)N2CCCc3cc(NC(=O)C(=O)NCC4CCN(C(=O)Oc5ccccc5)CC4)cc1c32 (centres undefined)	i
Cc1nc(-c2ccccc2Cl)sc1CNC(=O)c1c(F)cccc1F	i
COc1ccc(N2CC(c3nc(-c4cc(OC)c(OC)c(OC)c4)no3)CC2=O)cc1Cl (centres undefined)	i
COCCCn1c(C(=O)Nc2ccc(C(C)C)cc2)cc2c(=O)n(C)c(=O)n(C)c21	i
CN1CCN(c2ncc(NC(=O)Nc3cc(F)cc(F)c3)cn2)CC1	i
CCc1cc2c(=O)c(-c3ccc4c(c3)OCCO4)coc2cc1OC(=O)c1ccco1	i
CCCS(=O)(=O)N1CCCc2ccc(NS(=O)(=O)c3cc(C)c(C)cc3OC)cc21	i
Cc1cc(F)ccc1N1Cc2ccccc2OCC1=O	i
COc1ccc2nc(N(CCN3CCOCC3)C(=O)c3ccc([N+](=O)[O-])cc3)sc2c1	i
CC(CO)(CO)NC(=O)c1cnn2c1OCCC2	i
Cc1noc(C2(NC(=O)Cc3ccsc3)CCCCC2)n1	i
Cc1cccc(S(=O)(=O)Nc2ccc3c(c2)N(S(C)(=O)=O)CCC3)c1	i
O=C1/C(=C/c2c(F)cccc2Cl)Oc2c1ccc1c2CN(C2CCS(=O)(=O)C2)CO1 (centres undefined)	i
CCOc1ccccc1C(=O)NC1CCN(C(=O)c2cn(-c3ccc(C)c(C)c3)nn2)CC1	i
O=C(NCCOc1ccc(-c2ccccn2)nn1)c1cc(Cl)ccc1Cl	i
CNC(=O)Cc1csc(NC(=O)/C=C/c2cccs2)n1	i
CCCCc1ccc(NC(=O)c2nnn(-c3ccc(OC)cc3)n2)cc1	i
Cc1cc(NC(=O)C(=O)NCCCn2ccnc2)ccc1N1CCCC1=O	i
COc1ccc(-c2cc3nc(C)cc(N4CCN(Cc5ccccc5)CC4)n3n2)cc1OC	i
COC(=O)c1c(NCc2cc(F)cc(F)c2)c2cccc(Cl)c2[nH]c1=O	i
CN1CCN(C(=O)c2ccc3c(=O)n(Cc4ccccc4Cl)c(=S)[nH]c3c2)CC1	i
O=C(Nc1cc(-n2cccn2)ncn1)c1ncccn1	i
COc1nn(C)cc1C(=O)N1CCN(c2nc3c(C(F)(F)F)cccc3s2)CC1	i
COc1cc(-c2noc(CCn3nc(-c4ccc(Cl)cc4)ccc3=O)n2)ccc1OC(C)C	i
COCCCn1c(C(=O)N(Cc2ccccc2)C(C)C)cc2c(=O)n3cccc(C)c3nc21	i
CC1=C(C(=O)Nc2ccccc2)C(c2ccc(C)cc2)n2nc(C)nc2N1 (centres undefined)	i
COc1ccc2cc(C(C#N)OC(=O)CC3OC3c3ccccc3)ccc2c1 (centres undefined)	i
CCOc1ccc(NC(=O)CN2C(=O)C3(SCC(=O)N3c3ccc(F)cc3)c3ccccc32)cc1 (centres undefined)	i
Cc1ccc(C(C)C)c(OCC(O)Cn2c(N3CCCCCC3)nc3c2c(=O)n(C)c(=O)n3C)c1 (centres undefined)	i
CC(C)(C)C(=O)NCC(O)c1ccoc1 (centres undefined)	i
COc1ccc(OC)c(-c2cc(C(=O)NCc3cc(-c4ccco4)n(C)n3)n(C)n2)c1	i
COc1ccc(NC(=O)Cc2ccc(F)cc2)c2ccccc12	i
C=C(C)Cn1c(=O)c2c(nc3n(CCc4ccc(OC)c(OC)c4)c(C)cn23)n(C)c1=O	i
CC(=O)CSc1nc2c(c(=O)[nH]c(=O)n2C)n1CC(C)C	i
CC(=O)Nc1ccc(SCCCC(=O)Nc2ccc(C)c(F)c2)nn1	i

Next section.
SMILES	GIRK2 activ
O=C(NCCCn1cccc1)C1COc2ccccc2O1 (centres undefined)	i
CCCCCCNC(=O)/C(C#N)=C1\N=C(NC(=O)c2ccc([N+](=O)[O-])cc2)c2ccccc21	i
CCOc1ccc(NC(=O)c2cn(Cc3ccc(NC(=O)Cc4cccc(OC)c4)cc3)cn2)cc1	i
CCCCCCCC/C=C\CCCCCCCC(=O)OC[C@H](CO)OC(C)=O	i
O=c1[nH]c2nc(NCc3cc(F)ccc3F)ncc2c(=O)n1-c1ccccc1	i
Cc1nnc(CNC(=O)c2ccc(OCC(=O)C3CC3)cc2)o1	i
